Mtb H37Rv = Mycobacterium tuberculosis H37Rv growth inhibition, cell based, confirmatory dose response (AID 1949). M. tuberculosis H37Rv growth inhibition. most inactive calls were filed without a number and no value below 0 was filed. one-dose inhibition, % at 10 µg/mL; IC50 in µg/mL for titrated hits. actives 1.6% (n = 100,000);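 active = confirmed in a dose series; inconclusive = about 50% or more but not retested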;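 note: bacteria grown 7 days with compound before Alamar blue readout; 0% = untreated bacteria and 100% = reference antibiotic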
* = called active by the depositor; i = inactive; u = inconclusive. Not all compounds are listed; count on the stated rates, not on these rows.

SMILES | Mtb H37Rv
Cc1nc2sc3c(O)cc(=O)[nH]c3c2c(C)c1C | 1%
CC(=O)CCC(=O)NCCc1ccccc1F | i
Cc1ccc(CN(c2ccc(C(=O)N3CCN(c4ccccc4)CC3)cc2)S(C)(=O)=O)cc1 | i
COc1ccccc1CC(=O)NC12CC3CC(CC(C3)C1)C2 | i
CCC(=O)c1ccc(OCC(O)CN2CCCC2)c(OC)c1 (stereo unspecified) | i
O=C(NCC(O)c1ccccc1)c1cccc(S(=O)(=O)N2CCOCC2)c1 (stereo unspecified) | i
O=C(Nc1cnc2ccccc2c1)N1CCCC1 | i
Cc1cc(C)cc(OCC(=O)Nc2ccc(S(=O)(=O)N3CCc4ccccc43)cc2)c1 | 7%
COc1ccc(S(=O)(=O)NCc2ccc(Cl)c(Cl)c2)cc1 | i
CNC(=S)Nc1ccc(Oc2ccccc2OC)cc1 | i
Cc1cc(C)n(C(=O)CSc2ccccc2)n1 | 2%
CC(C)CC(C(=O)Oc1ccc([N+](=O)[O-])cc1)N1C(=O)c2ccccc2C1=O (stereo unspecified) | i
COc1ccc(C)cc1NC(=O)C1CCCCC1C(=O)O (stereo unspecified) | 3%
O=C(O)c1ccc(Oc2ccc3c(c2)C(=O)N(c2nccs2)C3=O)cc1 | i
O=S(=O)(NCc1ccccn1)c1cccc(C(F)(F)F)c1 | i
COc1ccc(NC(=O)NCCCN2CCCC2=O)cc1 | i
COC(=O)C1=C(C)N(C)C(=S)NC1c1cccc(O)c1 (stereo unspecified) | i
Cc1cc(NC(=O)C(=O)NCCN2CCN(C(=O)c3ccco3)CC2)ccc1Br | 1%
CC(C)(C)NC(=O)c1ccc(Br)o1 | i
O=C(Nc1cccc(-c2cn3ccsc3n2)c1)c1ccc(Br)cc1 | i
Cc1cc(C)n(C(=O)c2ccc(C)c(F)c2F)n1 | i
C=C(C)CSc1nnc2n(-c3ccc(C)cc3)c(=O)c3c4c(sc3n12)CCCC4C (stereo unspecified) | i
Cc1ccc(C)c(NC(=O)CSc2nnnn2-c2ccc(C(=O)O)cc2)c1 | i
CCOc1ccc(/C=C\c2[nH]c(=O)[nH]c(=O)c2[N+](=O)[O-])c(OCC)c1 | i
CCc1nc(OCc2ccco2)c2sc3nc4c(cc3c2n1)COC(C)(C)C4 | 2%
COCCN1C(=O)/C(=C/c2ccc(C(C)C)cc2)SC1=S | i
Cc1ccc(NC(=O)c2cc3cc(Cl)cc(Cl)c3oc2=O)c(C)c1 | 1.1µg/mL*
CC12CCC(C(=O)Nc3nccs3)(OC1=O)C2(C)C (stereo unspecified) | i
CCC(Oc1ccccc1)C(=O)Nc1nnc(Cc2ccc(OC)c(OC)c2)s1 (stereo unspecified) | i
COc1ccc(-c2nc3ccccc3c(C(=O)Nc3ccc(S(N)(=O)=O)cc3)c2C)cc1 | i
Cc1cccc(C)c1N1CCN(CCn2c(=S)[nH]c3ccccc3c2=O)CC1 | 1%
CC(C)OCCCNS(=O)(=O)c1ccc([N+](=O)[O-])cc1 | 0%
COc1cc(Cl)c2[nH]cc(CCN)c2c1 | i
Cc1sc(NC(=O)COc2ccc(Br)cc2)c(C(N)=O)c1C | i
CSc1ccc(C(Nc2ccccn2)c2ccc3cccnc3c2O)cc1 (stereo unspecified) | i
CC(=O)Nc1ncc2c(n1)CC(c1ccc(C(C)(C)C)cc1)CC2=O (stereo unspecified) | 3%
COc1cc(NC(=S)NCC(C)C)cc(OC)c1 | i
COc1ccc(OCC(=O)Nc2ccccc2C(=O)NC(C)C)cc1 | 0%
C=CCc1cccc(CNc2nc3ccccc3n2C)c1O | u
O=C(Nc1ccc2oc(-c3cccc(Cl)c3)nc2c1)c1ccccc1Br | i
O=C(OCc1ccc(F)cc1)c1cc(=O)[nH]c2ccccc12 | i
CCCN1CCN(c2ncnc3scc(C4COc5ccccc5O4)c23)CC1 (stereo unspecified) | 2%
COc1ccc(CNC(=S)Nc2ccc(F)c(Cl)c2)cc1 | i
Cc1cccc(C)c1NC(=O)CN(c1ccccc1F)S(C)(=O)=O | 0%
N#Cc1ccccc1CSc1n[nH]c(=O)[nH]c1=O | i
COc1ccc(N(C(=O)c2ccc(OC)c(OC)c2)S(=O)(=O)c2ccc(C)cc2)cc1 | 2%
COc1cc(C)ccc1OCCN(C)C | i
COC(=O)c1cc(Cl)c(NC(=O)c2cccs2)cc1OC | i
COc1ccc(N(CC(=O)O)S(C)(=O)=O)cc1OC | i
CC(=O)Nc1ccc(S(=O)(=O)Nc2cccc(-c3cn4ccccc4n3)c2)cc1 | i
O=C(Nc1cccc(Cl)c1)NC1CCS(=O)(=O)C1 (stereo unspecified) | i
CCc1c(C)nc2sc(C(N)=O)c(N)c2c1C | i
CCc1nnc2sc(-c3ccc(NC(=O)c4ccc5c(c4)OCCO5)cc3)nn12 | i
COC(=O)C(C)Oc1ccc2c(=O)c(Oc3ccccc3Cl)coc2c1 (stereo unspecified) | 8.6µg/mL*
O=C(CCCc1nc(-c2ccccc2Cl)no1)NC1CCCCC1 | 7%
COc1cccc2cc(-c3nnc(Nc4ccccc4C)s3)c(=O)oc12 | i
Cc1ccc(Cl)cc1N1CCN(C(=O)CN(c2ccccc2)S(=O)(=O)c2ccccc2[N+](=O)[O-])CC1 | 5%
COc1ccc(NC(=O)C2CCCC2)cc1Cl | i
O=C(Cn1nnc(-c2cccc(C(F)(F)F)c2)n1)N1CCOCC1 | i
O=C1CC(Nc2ccc(OC(F)(F)F)cc2)C(=O)N1c1ccc(Cl)cc1 (stereo unspecified) | i

(further entries)
SMILES | Mtb H37Rv
CCCc1cc(=O)[nH]c(SCc2c(F)cccc2Cl)n1 | 0%
CCC(=O)N(NC(N)=S)c1ccccc1 | i
CCOc1ccc(C(=S)N2CCN(c3cccc(Cl)c3)CC2)cc1 | 1%
CCOC(=O)c1ccc(Oc2c(C(F)(F)F)oc3cc(O)ccc3c2=O)cc1 | i
Cc1cc([N+](=O)[O-])ccc1NC(=S)NCCc1ccccc1 | i
Cc1cccc(C)c1OCC(=O)NCc1nnc(SCC(=O)NC2CCCCC2)n1C | i
O=C(O)CNC(=O)CC12CC3CC(CC(C3)C1)C2 | i
COc1ccc(CC(=O)Nc2ccc(S(=O)(=O)N3CCCCC3)cc2)cc1OC | i
Cc1ccc2nc(-c3ccc(NC(=O)Cc4ccc(F)cc4)cc3)sc2c1 | 2%
Cc1nc(SCCC(=O)Nc2ccccc2C#N)nc2cc3c(cc12)CCC3 | i
CCc1ccc(N2C(=O)CC(C(=O)OC)=C2C)cc1 | u
CNC(=O)c1ccccc1-c1nc(-c2cccc(C)c2)no1 | i
C=CCn1c(COc2cccc3cccnc23)nnc1SCC(=O)OC | i
O=C1CC(NC23CC4CC(CC(C4)C2)C3)C(=O)N1Cc1ccccc1 (stereo unspecified) | i
CC1(C)Cc2c(sc3c2c2ncnn2c2nnc(SCc4ccccc4)n32)CO1 | i
S=C(NCCc1ccccc1)NCCn1cc(Cl)cn1 | i
COCCNC(=S)N1CCN(c2ccccc2F)CC1 | i
CCn1c(SCC(=O)Nc2ccc(C)c(C)c2)nnc1-c1ccncc1 | 2%
COC(=O)Cc1c(C)c2ccc(OC(=O)c3cccs3)c(C)c2oc1=O | 25%
CCOc1cc(C=O)cc(Br)c1OC(C)C(=O)OC (stereo unspecified) | i
CCOC(=O)C1=C(c2ccccc2)Nc2ncnn2C1c1ccc(C(C)C)cc1 (stereo unspecified) | 0%
CS(=O)(=O)N(CC(=O)Nc1ccc(Br)cc1)c1cccc(C(F)(F)F)c1 | i
CC(Oc1cccc(Cl)c1)C(=O)NCc1ccc(Cl)c(Cl)c1 (stereo unspecified) | 41%
COc1ccc(C)cc1NC(=O)Cc1ccc(C)cc1 | i
CCOC(=O)c1nc(Nc2ccc(F)cc2)c2ccccc2n1 | 1%
CCc1ccc(N(CC(=O)Nc2ccccc2C(=O)OC)S(C)(=O)=O)cc1 | i
COc1ccc(Br)cc1CC(=O)O | i
CCc1c(C)sc(NC(=O)c2cc(-c3ccccc3)on2)c1C#N | i
COc1ccccc1NC(=O)c1ccccc1NC(=O)c1cc(OC)c(OC)c(OC)c1 | 6%
Cc1ccc(CN2CCN(C(=O)c3cccc4ccccc34)CC2)cc1 | i
FC(F)(F)c1ccccc1NC(=S)NCCn1cc(Br)cn1 | i
CCc1ccccc1NC(=O)Cn1cnc2ccccc2c1=O | i
C=CCn1c(SCC(=O)Nc2c(C)cccc2C)nnc1-c1ccc(OC)cc1 | i
CC1=CC(=O)N(CCO)C1c1ccc(Cl)cc1 (stereo unspecified) | i
Cc1cccc(CSc2nnc3ccccn23)c1 | i
OCCNCCCCOc1ccccc1F | i
COc1ccc(CC(=O)NC(=S)Nc2ccc(F)c(Cl)c2)cc1 | i
O=C(NCC1CCCO1)c1cc(S(=O)(=O)N2CCCC2)c(Cl)cc1Cl (stereo unspecified) | i
CC(C)OC(=O)COc1ccc(-c2ccccc2)cc1 | i
CCn1c(SCC(=O)Nc2c(F)cc(F)cc2Br)nnc1-c1ccccc1 | 2%
CCC(C(=O)OC)n1cnc2scc(-c3ccc(C)c(C)c3)c2c1=O (stereo unspecified) | 18%
CN(c1ccc(C(=O)NCC2CCCO2)cc1)S(=O)(=O)c1ccccc1 (stereo unspecified) | i
O=C(COc1cc(Cl)c(Cl)cc1Cl)Nc1cccc([N+](=O)[O-])c1 | i
O=C(CSc1nnc(Cc2ccccc2)n1-c1ccc(F)cc1)N1CCOCC1 | i
CN1CCN(C(=O)c2cc(-c3ccc(Cl)cc3Cl)nc3ccccc23)CC1 | i
O=C(NS(=O)(=O)c1ccc(Cl)cc1)c1ccccc1O | i
CCCc1cc(=O)oc2c(C)c(OC(C)C)ccc12 | 1%
COc1ccc(Cl)cc1-c1nc2ccccc2s1 | i
Cc1c(C(=O)Nc2sc3c(c2C(=O)NCC2CCCO2)CCC3)oc2ccccc12 (stereo unspecified) | i
Fc1ccc(-n2c(SCc3ccccc3Cl)nnc2-c2ccncc2)cc1 | i
COc1cccc(NC(=O)CN(C)C)c1 | i
O=C(NCCNC(=O)c1c(Cl)cccc1Cl)c1c(Cl)cccc1Cl | 2%
CC(C)c1ccc(OCc2nnc(SCC(=O)c3ccc(Br)cc3)n2C)cc1 | 3%
CCOc1ccc2ccccc2c1C(=O)Nc1sc(C)c(C)c1C(N)=O | 21%
COc1ccc(-c2nn(CCC#N)cc2C=O)cc1 | i
Cc1ccc(C(=O)Nc2ncn[nH]2)cc1Cl | i
Fc1cccc(Cl)c1CNn1cn[nH]c1=S | i
CC(C)c1ccc(OCc2nnc(SCC(=O)NCc3ccccc3)n2C)cc1 | i
CCCCc1ccc(NC(=O)Cc2ccc(Cl)cc2)cc1 | i
Cc1ccc(NC(=S)N2CCc3ccccc3C2)cc1 | i

18 neighbouring compounds already listed:
SMILES | Mtb H37Rv
CCn1c(SCC(=O)Nc2c(F)cc(F)cc2Br)nnc1-c1ccccc1 | 2%
CCC(C(=O)OC)n1cnc2scc(-c3ccc(C)c(C)c3)c2c1=O (stereo unspecified) | 18%
CN(c1ccc(C(=O)NCC2CCCO2)cc1)S(=O)(=O)c1ccccc1 (stereo unspecified) | i
O=C(COc1cc(Cl)c(Cl)cc1Cl)Nc1cccc([N+](=O)[O-])c1 | i
O=C(CSc1nnc(Cc2ccccc2)n1-c1ccc(F)cc1)N1CCOCC1 | i
CN1CCN(C(=O)c2cc(-c3ccc(Cl)cc3Cl)nc3ccccc23)CC1 | i
O=C(NS(=O)(=O)c1ccc(Cl)cc1)c1ccccc1O | i
CCCc1cc(=O)oc2c(C)c(OC(C)C)ccc12 | 1%
COc1ccc(Cl)cc1-c1nc2ccccc2s1 | i
Cc1c(C(=O)Nc2sc3c(c2C(=O)NCC2CCCO2)CCC3)oc2ccccc12 (stereo unspecified) | i
Fc1ccc(-n2c(SCc3ccccc3Cl)nnc2-c2ccncc2)cc1 | i
COc1cccc(NC(=O)CN(C)C)c1 | i
O=C(NCCNC(=O)c1c(Cl)cccc1Cl)c1c(Cl)cccc1Cl | 2%
CC(C)c1ccc(OCc2nnc(SCC(=O)c3ccc(Br)cc3)n2C)cc1 | 3%
CCOc1ccc2ccccc2c1C(=O)Nc1sc(C)c(C)c1C(N)=O | 21%
COc1ccc(-c2nn(CCC#N)cc2C=O)cc1 | i
Cc1ccc(C(=O)Nc2ncn[nH]2)cc1Cl | i
Fc1cccc(Cl)c1CNn1cn[nH]c1=S | i

Additional results.
SMILES | Mtb H37Rv
O=C(Nc1ccc2c(c1)C1C=CCC1C(C(=O)O)N2)c1ccc(Cl)cc1Cl (stereo unspecified) | 5%
O=S(=O)(c1ccc(-c2nc3ccccc3s2)cc1)N1CCCCCC1 | i
C=CCN(CC=C)CCCOc1ccc(Cl)c(C)c1C | i
Cc1ccc(NC(=O)CSc2nnc(-c3cccnc3)n2-c2ccc(Br)cc2)cc1F | i
Clc1ccc(Cn2cc(Cl)cn2)cc1 | i
CC(=O)Cc1nsc(NC(=O)C(C)(C)Oc2ccc(Cl)cc2)n1 | i
CC(C)N(Cc1ccccc1)c1ncnc(N)c1[N+](=O)[O-] | i
O=C(NCc1ccncc1)C(=O)NCC1CCCO1 (stereo unspecified) | i
CCOCC(=O)Nc1ccc([N+](=O)[O-])cc1OC | i
CC(C)(C)Cc1nnc(NC(=O)c2ccc(C(C)(C)C)cc2)s1 | i
CCCCC(=O)Nc1ccc(NCc2cccc(OC)c2OC)cc1OC | 23%
O=C(Cn1cnc2sc3c(c2c1=O)CCCC3)Nc1ccccc1Br | i
COc1cccc(NC(=O)CN(c2ccc(Cl)cc2)S(=O)(=O)c2ccccc2)c1 | 3%
COc1ccc(S(=O)(=O)NC(C(C)C)C(C)C)cc1C | i
CNc1oc(-c2ccccc2F)nc1C#N | 2%
CCN(Cc1ccccc1)C(=O)c1ccc(SC)cc1OC | i
Nc1nc(NC(=O)c2ccc([N+](=O)[O-])cc2)nn1-c1ccccc1 | i
CC(C)C(=O)Nc1cccc(NC(=O)C(Cl)(Cl)Cl)c1 | i
Cc1ccc(OCCSCc2nnc(NC(=O)Nc3ccccc3F)s2)cc1 | i
C=CCn1c(Sc2c(-c3ccccc3)c3cc(Cl)ccc3[nH]c2=O)nc2ccccc2c1=O | 10%
O=S(=O)(c1ccc(N2CCCC2)cc1)C(F)(F)F | i
O=C(CSc1nnc(Cc2ccccc2)o1)c1ccc(Br)cc1 | 3%

Screening data (PubChem)
